Compound activity as filed in PubChem BioAssay.
TRPV1 potentiator: HTS Assay for Compounds that Act as Potentiators of the Vanilloid Receptor 1; Transient receptor potential cation channel subfamily V member 1 (Homo sapiens), Q8NER1; TRPV1-expressing cells, Fluo-8 calcium influx, capsaicin EC20 potentiation; host cell line not named in the record; control for the full effect not named in the record; potentiation, % at 8.33 µM; actives 0.02% (n = 320,000); active means potentiation above 80%; inconclusive means 30% to 80%; inactive means below 30%; further: 0% is about no effect
Target sequence (Q8NER1 whole entry, looked up): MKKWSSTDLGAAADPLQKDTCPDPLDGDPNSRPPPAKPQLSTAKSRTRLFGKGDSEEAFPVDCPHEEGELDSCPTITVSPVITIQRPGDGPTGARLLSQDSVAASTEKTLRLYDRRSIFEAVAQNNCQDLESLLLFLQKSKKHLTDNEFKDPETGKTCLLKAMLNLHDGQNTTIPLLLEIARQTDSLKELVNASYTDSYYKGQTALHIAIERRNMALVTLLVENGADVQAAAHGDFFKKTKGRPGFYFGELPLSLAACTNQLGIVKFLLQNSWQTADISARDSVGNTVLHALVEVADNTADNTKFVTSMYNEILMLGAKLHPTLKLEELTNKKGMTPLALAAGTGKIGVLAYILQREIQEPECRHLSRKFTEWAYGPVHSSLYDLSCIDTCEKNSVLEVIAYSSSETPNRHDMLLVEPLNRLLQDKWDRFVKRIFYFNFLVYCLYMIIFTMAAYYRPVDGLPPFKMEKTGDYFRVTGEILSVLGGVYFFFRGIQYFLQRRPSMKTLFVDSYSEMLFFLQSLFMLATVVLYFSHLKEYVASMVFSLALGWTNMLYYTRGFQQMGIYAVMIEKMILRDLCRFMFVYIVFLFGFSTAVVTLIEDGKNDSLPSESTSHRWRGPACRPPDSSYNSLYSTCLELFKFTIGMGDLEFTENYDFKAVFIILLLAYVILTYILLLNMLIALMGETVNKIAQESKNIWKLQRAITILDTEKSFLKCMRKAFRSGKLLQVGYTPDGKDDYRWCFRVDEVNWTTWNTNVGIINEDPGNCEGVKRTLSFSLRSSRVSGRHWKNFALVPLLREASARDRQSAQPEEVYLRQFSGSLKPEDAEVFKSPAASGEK
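Cells expressing TRPV1 were dye-loaded with Fluo-8 and read kinetically: 10 s baseline, 3 min after compound (agonist portion), then 2 min after EC20 capsaicin (allosteric enhancer portion). Calcium-bound dye fluorescence at 480/520 nm.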
Six1-Eya2 blk: qHTS Assay for Inhibitors of the Six1/Eya2 Interaction. AID 651725, 2012. activity change, % (concentration not given with the values). AlphaScreen GST-Six1/His-Eya2 binding, biochemical; stronger effect = lower value; control for the full effect not named in the record. Homeobox protein SIX1 (Homo sapiens) + Protein phosphatase EYA2 (Homo sapiens), …. actives 0.56% (n = 360,000); in the data active = activity change below about -65%; inconclusive = about -30% to -65%; inactive = above about -30%; further: on the % scale 0 is the no-effect control and ±100 the full control effect
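AlphaScreen with GST-Six1 and His-Eya2 (5X mix: 250 nM and 500 nM), glutathione donor and nickel acceptor beads; buffer 50 mM Tris pH 8.0, 300 mM NaCl, 1 mM TCEP; 1 h at 37 C in the dark.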
D2 PAM: Beta-Arrestin HTS for Positive Allosteric Modulators of the Human D2 Dopamine Receptor: Potentiators; DiscoveRx D2 beta-arrestin cells, luminescence, 90 min; 100% = 57 uM dopamine signal; potentiation, % (no concentration beside the values); actives 0.23% (n = 360,000); D(2) dopamine receptor (Homo sapiens), P14416; active = potentiation of 50% or more; inconclusive = 30% to 50%; inactive = 30% or less;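 further: compound concentration not given in the record; tested on top of an EC20 dose of dopamine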
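D2 cells co-treated with compound plus 50 nM dopamine (EC20) for 90 min at 37 deg C to detect potentiation. Beta-arrestin recruitment was read as enzyme-fragment luminescence after 1 h at ambient temperature. Full response was set by 57 uM dopamine.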
CtBP-E1A inh: qHTS Assay for Inhibitors of the CtBP/E1A Interaction; CtBP / adenovirus E1A interaction (AlphaScreen); AlphaScreen GST-E1A/His-CtBP binding, 1536-well; stronger effect = lower value; control for the full effect not named in the record; activity change, % (test concentration not listed); actives 0.49% (n = 340,000); in the data active means activity change below about -65%; inconclusive means about -30% to -65%; inactive means above about -30%; further: on the % scale 0 is the no-effect control and ±100 the full control effect; compound concentration not given in the record
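Homogeneous bead-based format: GST-tagged E1A captured on glutathione donor beads, His-tagged CtBP on nickel acceptor beads; compounds precede bead addition by 2 h at 37 °C.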
TRPML1 inh: qHTS for Inhibitors of the Human Mucolipin Transient Receptor Potential 1 (TRPML1); AID 624415, 2012; activity change, negative = inhibition, % (no concentration beside the values); actives 0.02% (n = 390,000); TRPML1-inducible cells, Ca2+ dye fluorescence, FDSS; stronger effect = lower value; inhibition of EC80 agonist-evoked calcium signal; Mucolipin-1 (Homo sapiens), Q9GZU1; in the data active means activity change below about -50%; inconclusive means about -30% to -50%; inactive means above about -30%;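 further: stimulus is agonist 54-4 at its EC80 concentration; on the % scale 0 is the no-effect control and ±100 the full control effect; compound concentration not given in the record; the text of the record puts the active cut at -80%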
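TRPML1-DL cells, Tet-induced overnight (~16 h, 37 °C) at 1,500 cells/well, were loaded with Ca8 no-wash dye plus quencher for 45-90 min at room temperature. Compounds were pinned during FDSS kinetic reading; agonist 54-4 at EC80 (4 uM final) then added.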
TRPML1 agonist: qHTS for Agonists of the Human Mucolipin Transient Receptor Potential 1 (TRPML1). Mucolipin-1 (Homo sapiens), Q9GZU1. TRPML1-expressing cells, Ca2+ dye fluorescence, FDSS; host cell line not named in the record; reference of the full effect not given here. activation, % (concentration not given with the values). actives 0.12% (n = 410,000); in the data active = activation above about 50%; inconclusive = about 30% to 50%; inactive = below about 30%; further: 0% is about no effect; the text of the record puts the active cut at 80%
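Agonist activity was taken from a 110 s kinetic Ca2+ dye read on the FDSS after pinning compounds onto TRPML1-DL cells. The cells were seeded at 1,500/well with Tet inducer, incubated about 16 h, then dye-loaded at room temperature.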
* = called active by the depositor; ? = inconclusive; . = no result given; & = joins results of further samples.

SMILES	TRPV1 potentiator	Six1-Eya2 blk	D2 PAM	CtBP-E1A inh	TRPML1 inh	TRPML1 agonist
CCN(Cc1ccccc1)C(=O)COc1cc(=O)n(CC)c2ccccc12	12	-1	-10	-1	1	1.2
CCOc1cc(/C=C2/C(=O)ON=C2C)ccc1OCc1ccccc1	-18	10	-2	4	-13	-0.9
Cc1cc(CNC[C@H]2O[C@@H](n3ccc(=O)[nH]c3=O)[C@H](O)[C@@H]2O)no1	.	7	-4	5	14	-0.2
CC(=O)c1cc(-c2ccccc2)n(CC(=O)N2CCN(C3CCCC3)CC2)c1C	4	-7	-26	-1	10	-0.2
O=S(=O)(Nc1cccc(S(=O)(=O)N2CCCCCC2)c1)c1ccc(F)cc1F	.	-4	3	0	12	1.5
C#CCOCC1CN(c2ccccc2)C(=O)O1 (stereo unspecified)	.	3	-7	3	-7	0.0
CC(C)Cc1nnc(NC(=O)CCC(=O)NC2CCCCCC2)s1	-13	3	1	1	18	-0.6
CN(C)c1ccccc1-c1cc(NC=O)c2ncc(-c3cccc(C(F)(F)F)c3)n2c1	.	?	-8	-72*	.	18
CCOC(=O)c1sc(NC(=S)NC(=O)c2cccc(OC)c2)nc1C	-6	-15	-8	2	-6	2.4
CCOC(=O)Cn1c(C)nc2c(C(=O)OCC)sc(C)c2c1=O	14	8	-2	-8	-11	-0.2
CCOC(=O)C[C@H]1c2cc(F)ccc2S(=O)(=O)N1c1cccc(OC)c1	.	3	-5	-3	18	0.8&-1.2
O=c1[nH]cnc2c1N1CCC2CC1	13	-17	-19	-7	-22	7.1
COc1ccccc1CNC(=O)COC(=O)Cc1ccc(F)cc1	-22	6	7	-18	6	0.5
Cc1cc(C)nc(NNC(=O)NC2CCCCC2)n1	-3	4	0	9	-6	5.3
CC1CN(C(=S)SCCN2Cc3ccccc3C2=O)CC(C)O1 (stereo unspecified)	3	-1	-8	-25	17	0.1
CCN(CC)c1ccc(N=Nc2ncn[nH]2)cc1	-1	-69*	-5	-74*	-7	0.3
CC1(C)Oc2ccc3ccc(=O)oc3c2-c2cn[nH]c21	.	-2	8	1	-8	0.3
COCCSc1nnc(NC(=O)C2CC(=O)N(CCc3ccc(F)cc3)C2)s1 (stereo unspecified)	14	-2	-1	0	2	-0.3
CO/N=C(\c1nonc1N)N1CCN(c2ccc([N+](=O)[O-])cc2Cl)CC1	-28	-10	1	4	17	0.4
CSc1ncccc1C(=O)OCC(=O)c1cc(C)n(CC2CCCO2)c1C (stereo unspecified)	.	-1	6	-7	-4	2.1

Ordered by length of the SMILES (ascending): some entries from above.
SMILES	TRPV1 potentiator	Six1-Eya2 blk	D2 PAM	CtBP-E1A inh	TRPML1 inh	TRPML1 agonist
O=c1[nH]cnc2c1N1CCC2CC1	13	-17	-19	-7	-22	7.1
CCN(CC)c1ccc(N=Nc2ncn[nH]2)cc1	-1	-69*	-5	-74*	-7	0.3
CC1CN(C(=S)SCCN2Cc3ccccc3C2=O)CC(C)O1 (stereo unspecified)	3	-1	-8	-25	17	0.1
COCCSc1nnc(NC(=O)C2CC(=O)N(CCc3ccc(F)cc3)C2)s1 (stereo unspecified)	14	-2	-1	0	2	-0.3
CCOC(=O)C[C@H]1c2cc(F)ccc2S(=O)(=O)N1c1cccc(OC)c1	.	3	-5	-3	18	0.8&-1.2
CO/N=C(\c1nonc1N)N1CCN(c2ccc([N+](=O)[O-])cc2Cl)CC1	-28	-10	1	4	17	0.4

Next part:
SMILES	TRPV1 potentiator	Six1-Eya2 blk	D2 PAM	CtBP-E1A inh	TRPML1 inh	TRPML1 agonist
CCOC(=O)C1=C(C)NC(C)=C(C(=O)OCC)C1/C=C/c1ccccc1OC	-8	-1	-4	10	10	2.0
Cc1nc2cccc(C(=O)Oc3ccc([N+](=O)[O-])cc3)c2o1	2	-82*	-7	-15	8	0.0
CCN1CCN(Cc2coc3ccc(C)cc3c2=O)CC1	0	-1	2	14	-5	0.2
Cc1ccc(N(C(=O)CNC(=O)c2cccs2)C(C(=O)NC2CCCC2)c2ccncc2)cc1 (stereo unspecified)	11	0	-1	-5	-14	0.5
CCc1nnc(NC(=O)Cc2ccc(OC)c(OC)c2)s1	2	10	-6	5	-13	1.5
CCOc1ccc(NC(=O)CN(C)C(=O)C2CCN(C(=O)c3ccc(Cl)cc3)CC2)cc1OCC	3	-7	-2	0	3	1.0
COc1cccc(COCC(O)CN2CCC(C(N)=O)CC2)c1 (stereo unspecified)	-7	0	-3	15	-4	-0.5
COc1ccccc1N1C(=O)CSC1=NC(=O)c1ccccc1	18	2	-15	.	2	-0.8
CC(C)(C)OC(=O)N[C@@H](COCc1ccccc1)C(=O)N[C@@H](CO)[C@H](O)[C@@H]1C[C@@H]1C(=O)N1CCCC1	10	38	-6	.	19	0.1
CCOC(=O)c1sc(NC(=O)c2sccc2C)cc1C	7	4	-8	4	0	0.9
COc1ccc(CN2CCN(C(=O)c3ccc(S(=O)(=O)NCc4ccco4)cc3)CC2)cc1	3	-7	2	-25	14	-0.1
CN(C)C(C(=O)Nc1cc(Cl)cc(Cl)c1)c1ccccc1 (stereo unspecified)	0	3	-13	3	12	1.0
CCOc1ccc(C(=O)N(CC)CC(=O)Nc2ccc3c(c2)OCCO3)cc1OCC	5	-2	-1	-11	-6	-0.5
COc1cc(C(=O)N/N=C(\C)c2ccccn2)cc(OC)c1OC	6	-8	-5	-4	-5	0.0
COc1cc(C=C2C(=O)c3ccccc3C2=O)ccc1O	.	-2	-2	.	-16	0.5
CN1C/C(=C/c2ccccc2[N+](=O)[O-])C(=O)/C(=C\c2ccccc2[N+](=O)[O-])C1	.	-8	-10	0	-9	-0.6
Cc1c(O[C@@H]2O[C@H](CO)[C@@H](O)[C@H](O)[C@H]2O)c(CO)c(O[C@@H]2O[C@H](CO)[C@@H](O)[C@H](O)[C@H]2O)c2c1O[C@@H](c1ccccc1)C[C@@H]2O	.	-9	-12	-19	-2	0.7
CC(C)(C)OC(=O)C[C@@H]1C/C=C\C[C@H](CC(=O)N(CCO)Cc2ccccc2)C(=O)N[C@H](C(C)(C)C)COC1=O	.	14	1	-9	-3	-0.5
CCCN(CCC)C(=O)CP(=O)(c1ccccc1)c1ccccc1	2	5	-2	4	-6	0.3
CCCOP(=O)(c1ccc(N(C)C)cc1)C(O)c1cccnc1 (stereo unspecified)	-11	1	-3	2	4	0.5
COc1ccc2c(-c3cnc(N4CCOCC4)nc3)c(-c3ccc(S(C)(=O)=O)cc3)sc2c1	.	6	-6	5	-3	1.7
Cc1cc(C)n(-c2ccc(C(=O)NCc3ccc(F)cc3)cc2)n1	-8	4	-3	5	26	-0.6
COC(=O)C1=C(C)Nc2nnnn2C1c1cc(OC)ccc1OC (stereo unspecified)	8	3	1	5	-12	0.8
COc1cccc(/C=N/NC(=O)C(C)Sc2ccccc2)c1 (stereo unspecified)	3	-14	-7	-12	30	1.9
CNC(=O)CSc1nc(-c2ccccc2)c(-c2ccccc2)o1	-14	-1	-10	.	28	0.9
N/C(Cc1ccc(Cl)cc1)=N\OC(=O)Cc1ccc([N+](=O)[O-])cc1	13	-19	86*	-11	13	-0.2
O=C(O)CCNS(=O)(=O)c1ccccc1	-4	-1	-8	-1	4	-1.1
Cc1nn(-c2ccccc2)c(C)c1NC(=O)COC(=O)c1ccccc1	12	-1	2	7	11	-0.1
COc1cccc(/C=N/NC(=O)c2cc3c(OC)c(OC)ccc3[nH]2)c1OC	2	-3	22	.	-18	2.5
Fc1ccc(-c2nnc3n2CCCCC3)cc1	19	-4	-4	-2	2	0.6
CCOC(=O)C1(Cc2ccccc2)CCN(Cc2ccc(C3CCCCO3)s2)CC1 (stereo unspecified)	10	0	-13	-8	50	0.1
O=C(O)C1CCCN1S(=O)(=O)c1ccccc1 (stereo unspecified)	-2	2	-1	42	-12	0.1
Cc1nn(-c2ccccc2)c(N)c1C1(O)C(=O)Nc2ccccc21 (stereo unspecified)	-1	1	-14	3	-7	0.7
O=C1CCC/C(=N/NC(=O)C2CCN(S(=O)(=O)c3cccs3)CC2)C1	3	-5	0	-4	-3	-0.4
CCc1cc2cc(C(=O)Nc3ccc(F)cc3)sc2s1	?	-1	-20	3	-4	0.2
O=C(COC(=O)c1cccc(S(=O)(=O)N2CCN(c3ccc(F)cc3)CC2)c1)NCC1CCCO1 (stereo unspecified)	-15	9	-2	-2	3	-0.1
O=C(O)CCSc1nc2ccccc2s1	17	3	0	12	-4	-0.7
CS(=O)(=O)c1nc(S(=O)(=O)c2ccc(Cl)cc2)c(NCCN2CCOCC2)s1	21	0	-6	3	11	0.3
O=C(CN1C(=O)c2ccccc2C1=O)NCC(=O)OCC(=O)c1ccc(Br)cc1	-20	-7	-34	-6	2	-0.3
O=C(CSc1ncccn1)N/N=C/c1ccccc1[N+](=O)[O-]	-8	6	-6	18	-7	-0.3
CCN(C(=O)C1CCN(c2nc(-c3ccc(OC)cc3)no2)CC1)c1ccccc1	15	-1	-3	-1	4	-0.6
O=S(=O)(NN=Cc1ccc(O)cc1O)c1cc(Cl)c(Cl)cc1Cl	.	-7	-6	-8	-10	1.5
COc1ccc(NC(=O)CN(C)C(=O)c2cccc(S(=O)(=O)Nc3ccccc3Cl)c2)cc1	6	-23	7	-30	0	-0.1
Cc1ccc(S(=O)(=O)N2CCOCC2)cc1C(=O)OCC(=O)c1ccc(Br)cc1	10	5	0	.	23	1.7
COc1ccc(C(=O)COC(=O)CNC(=O)c2ccc(Cl)cc2Cl)c(OC)c1	-31	-8	-7	1	-3	1.0
O=C1CN(C(=O)CSc2nnc(-c3ccccc3)n2Cc2ccc3c(c2)OCO3)c2ccccc2N1	7	-3	-9	-1	6	-1.0
COc1ccc2cc(CCNC(=O)CC(C)(C)C)c(=O)[nH]c2c1	-16	-3	-3	11	-2	-0.3
COc1cc(/C=C2\SC(=S)N(NC(=O)c3ccccc3O)C2=O)ccc1O	12	?	-4	?	4	13
O=C1CCCN1Cc1ccccc1	9	2	-6	-2	4	-0.5
CC(C)OC(=O)CSc1nnc(Cc2ccccc2)n1C	-4	-2	4	-6	-13	0.1

(continued)
SMILES	TRPV1 potentiator	Six1-Eya2 blk	D2 PAM	CtBP-E1A inh	TRPML1 inh	TRPML1 agonist
N#CC(C#N)C(c1ccsc1)c1c(-c2ccccc2)[nH][nH]c1=O (stereo unspecified)	5	-3	-4	5	6	-1.2
COc1cc2ccccc2cc1C(=O)Nc1ccc(C)cc1	4	-5	8	.	.	.
O=CN1CCCN(Cc2nc(-c3cccc(Cl)c3)no2)CC1	-3	0	0	1	15	0.2
C/C(=N\NC(=O)Cc1ccccc1)c1ccc(Br)s1	-10	-26	-1	.	-2	-1.2
